# Screening results (PubChem)
# RN4220 kill = kills Staphylococcus aureus RN4220; inhibition, % (no concentration beside the values); S. aureus RN4220 growth, OD600, 16 h; 0.33% of 330,000 active;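 active = z-score of -3 or lower and OD600 up to 0.18 on both plates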;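 also: plate controls were untreated cells for no effect and reference antibiotic for full effect; stock transfer was 100 nL into about 80 µL; one replicate is shown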
# Sa ugtP lethal = compounds lethal to S. aureus RN4220 ugtP deletion mutant; 0.54% of 330,000 active; growth inhibition, % (test concentration not listed); AID 1259309; OD600 growth, 16 h; some inactives read as strong as hits;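 active = z-score under -3 and OD600 up to 0.15 on both plates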;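 also: plate controls were untreated wells for no effect and antibiotic for full effect; wells of about 80 µL received 100 nL stock; the first replicate is given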
# Mtb hypoxia inh = inhibitors of hypoxia-regulated fluorescent reporter in Mycobacterium tuberculosis. AID 1159583. M. tuberculosis hypoxia-regulated fluorescent reporter, fluorescence. fluorescence inhibition, % (concentration not given with the values). 0.1% of 300,000 active;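 active = 35 to 45% if threefold the growth effect, above 45% if 1.5-fold the growth effect; inactive = the rest, general growth blockers included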;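 also: wells of about 50 µL received 100 nL stock; 0% = vehicle wells and 100% = reference inhibitor wells; whole bacteria with a GFP reporter of the hypoxia response; strong numbers were not always called active; many hits fall short of the cut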
# BJeLR viability = kills HRASV12-expressing BJeLR cells. AID 1554. 0.17% of 300,000 active. inhibition, % (test concentration not listed). BJeLR (HRASV12) viability, CellTiter-Glo ATP luminescence, 48 h; reference of the scale not given here;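 active = replicate mean above 50%; inconclusive = above 50% but judged a plate artefact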;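 also: 50 nL library stock added to about 25 µL; numbers are from one replicate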
# PrP UTR inh = inhibition of PrP 5' UTR reporter expression | 0.35% of 340,000 active | cell-based PrP 5' UTR mRNA reporter, plate reader | inhibition, % (no concentration beside the values) | AID 488862;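 active = every replicate at 50% or more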;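 also: 0 = median of the neutral control wells; tested in H4 reporter cells; numbers are from one replicate; inactives centre near -14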
# Autofluor counter = flagged as autofluorescent in microsphere protease counterscreen; 3.1% of 360,000 active; fluorescence intensity (no concentration beside the values); AID 624483; compound autofluorescence counterscreen, microsphere flow cytometry; stronger effect = higher value;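 active = at least 3 SD above the mean of all compounds, about 16000 in these data; inconclusive = too few beads counted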;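 also: 100 nL of 1 mM stock went into each well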
# Mtb hypoxia inh growth = second read-out of Mtb hypoxia inh, no call of its own (marks repeat the call); growth inhibition, %; measured here: M. tuberculosis growth (absorbance);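 0% = vehicle and 100% = reference antibiotic; read after six days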
# * marks the source's active call; other numbers are inactive results; ? = inconclusive; · = no result given. This is a random part of the collection, and some 3.9% of all compounds hit somewhere here.
SMILES,RN4220 kill,Sa ugtP lethal,Mtb hypoxia inh,Mtb hypoxia inh growth,BJeLR viability,PrP UTR inh,Autofluor counter
Cc1cc(NC(=O)CSc2nc3c(cnn3-c3cccc(Cl)c3)c(=O)[nH]2)no1,5.8,4,9,9,·,-15,3723
COC(=O)Cc1ccc(NC(=S)NNC(=O)c2ccccc2Br)cc1,-0.2,-3,5,5,5,-18,2614
c1ccc2c(CN3CCSCC3)cccc2c1,9.8,12,6,6,12,-13,3844
COC(=O)N1C/C=C\C(c2ccc(OC)cc2)N(Cc2ccc(F)cc2)C(=O)C1 (centres undefined),·,·,·,·,5,-11,3951
CCC(C)NC(=S)NNC(=O)c1ccncc1 (centres undefined),-1.4,-3,-2,-9,-1,1,3513
O=C(NCCN1CCc2ccccc2C1)Nc1ccc([N+](=O)[O-])cc1,-0.8,0,10,19,1,-22,3291
Cc1cccc(NC(=O)CNC(=O)CSc2nnc(C(F)(F)F)n2C)c1C,1.1,5,5,6,·,-14,5582
c1ccc(CNCC2COc3ccccc3O2)cc1 (centres undefined),-3.6,11,·,·,-7,-8,2567
CCCCn1c(N)c(N(CC)C(=O)c2cnc(C)cn2)c(=O)[nH]c1=O,5.8,10,0,-3,·,-12,6232
COC(=O)c1ccc[n+](CCc2c[nH]c3ccccc23)c1,-1.2,-2,·,·,1,-26,5650
Cc1cc(NC(=O)c2ccc3c(c2)OCCO3)no1,2.2,3,·,·,-1,26,3906
CCn1c(N2CCN(C(=O)NC3CCCCC3)CC2)nc2ccccc21,4.7,-1,3,1,22,-16,10124
CS(=O)(=O)N1CCC(C(=O)Nc2cccc([N+](=O)[O-])c2)CC1,4.2,7,-1,6,3,-14,5133
CCc1ccc(C(=O)NNc2cc(Cl)cc(Cl)c2)cc1,-5.1,-4,-7,1,1,-11,5593
O=C1NC(c2ccc(Cl)cc2)Nc2ccccc21 (centres undefined),2.3,-7,0,2,-2,-8,4537
C=C(C)c1cccc(C(C)(C)NC(=O)N2CCN(c3ccccc3OC)CC2)c1,6.8,0,2,9,-10,-7,1937
Cc1sc2c(c1C)C(=O)NC(c1ccccc1F)N2 (centres undefined),3.4,-12,-5,11,-9,-50,5669
Cn1c(=O)[nH]c(=O)c2c1nc(Br)n2CCCO,4.3,7,2,-5,-5,29,7954
COc1ccc(NC(=S)N2CCC(N(C)CCN3CCOCC3)CC2)cc1,5.5,0,0,2,-10,-32,2074
COc1ccc(S(=O)(=O)N2CCC(C(N)=O)(N3CCCCC3)CC2)cc1OC,2.5,8,4,4,-4,-18,5555
COc1ccccc1/C=C/C(=O)OCc1nc2ccccc2c(=O)[nH]1,0.0,1,16,-4,4,-13,4383
Cc1cccc(NC(=O)CN(C)CC(=O)NC(c2ccccc2)c2ccccc2)c1C,1.7,17,5,6,·,-20,3455
COc1ccccc1CNC(=O)c1ccc(CS(=O)(=O)c2ccc(C)cc2)o1,4.6,-1,7,10,5,2,5528
O=C(CSc1ncccn1)NC(=O)Nc1ccc2c(c1)OCCO2,7.1,15,9,5,·,-5,4185

# Rewritten bar-delimited: part of the list above
Compound | RN4220 kill | Sa ugtP lethal | Mtb hypoxia inh | Mtb hypoxia inh growth | BJeLR viability | PrP UTR inh | Autofluor counter
COc1ccccc1CNC(=O)c1ccc(CS(=O)(=O)c2ccc(C)cc2)o1 | 4.6 | -1 | 7 | 10 | 5 | 2 | 5528
C=C(C)c1cccc(C(C)(C)NC(=O)N2CCN(c3ccccc3OC)CC2)c1 | 6.8 | 0 | 2 | 9 | -10 | -7 | 1937
Cn1c(=O)[nH]c(=O)c2c1nc(Br)n2CCCO | 4.3 | 7 | 2 | -5 | -5 | 29 | 7954
COc1ccc(S(=O)(=O)N2CCC(C(N)=O)(N3CCCCC3)CC2)cc1OC | 2.5 | 8 | 4 | 4 | -4 | -18 | 5555

# (continued)
SMILES,RN4220 kill,Sa ugtP lethal,Mtb hypoxia inh,Mtb hypoxia inh growth,BJeLR viability,PrP UTR inh,Autofluor counter
Cc1cccc(NC(=O)NNC(=O)c2c(Cl)c(C)nn2C)c1,5.1,1,11,17,-8,2,7341
Cc1ccc(C)c(NC(=O)CSc2nnc(CSc3nc(C)cc(C)n3)n2Cc2ccco2)c1,0.1,4,5,0,-5,2,3263
O=C(NCC(c1ccco1)N1CCCCC1)c1ccc(COc2ccc(Cl)cc2)cc1 (centres undefined),0.0,12,3,10,·,-12,7034
CC(=O)Nc1c(O)nc(SCC(=O)Nc2cccc(C)c2)[nH]c1=O,2.7,6,6,-1,2,-4,4832
COc1ccc(CC(=O)NC(C)c2nnc(SCCC(=O)Nc3ccccc3)n2C)cc1 (centres undefined),4.1,3,-3,2,-2,6,3378
CCOC(=O)c1sc(N)c(C#N)c1CSc1nnc(C2CCCCC2)n1N,6.5,3,-5,7,-15,-8,3977
FC(F)(F)c1ccc(N/N=C/c2cccnc2)nc1,·,·,·,·,-6,-31,5261
COc1ccc(NC(=O)CSc2c3c(nc4cc(Cl)ccc24)CCCC3)cc1OC,5.7,-1,17,0,-1,-13,2689
CCn1c(=O)c(C(=O)NCc2ccc(OC)cc2)c(O)c2ccccc21,8.1,7,4,5,3,-5,2622
O=C(O)COc1ccccc1/C=N/NC(=O)CNC(=O)c1ccc(F)cc1,·,·,·,·,18,-15,4768
CCn1c(/C=C\c2ccccc2C)nc2ccccc2c1=O,7.1,-11,0,-2,2,-32,2233
O=C(NCCCc1ccccc1)c1cccc(Br)c1,1.5,11,16,0,6,-9,6099
O=C(O)C1CC(=O)N(c2ccc(OCc3ccc(Br)cc3)cc2)C1 (centres undefined),·,·,·,·,-3,-25,3344
Cc1ccc(CS(=O)Cc2ccc(C(=O)NC3CCCCCC3)o2)cc1 (centres undefined),2.1,2,8,17,6,2,5867
Cc1cc(=O)n2nc(N3CCC(C(=O)NCc4ccc(Cl)cc4)CC3)sc2n1,-5.9,-2,-13,1,-1,-16,5839
CCOC(=O)N1CCN(c2c(N3CCC(N4CCCCC4)CC3)c(=O)c2=O)CC1,2.3,10,6,4,-5,-2,6088
O=C(CSc1nnc(CSc2nc3ccccc3s2)o1)NC1CCCCC1,-20,-10,11,13,-3,-2,·
CCN(CC)CCNC(=O)Cn1cnc2sc(C)c(S(=O)(=O)N3CCOCC3)c2c1=O,3.5,4,3,6,-2,-4,3737
Cc1cc(OCCCCCNCCO)ccc1Cl,-0.7,0,14,16,5,-17,11634
CCOC(=O)N1CCN(C(=O)CSCc2ccccc2C)CC1,0.2,-7,·,·,0,-16,2382
COC(=O)[C@@H](Cc1ccccc1)NC(=O)NCCc1ccccc1,2.0,5,0,11,6,-17,3867
O=C(CCC1CCCC1)N1CCC(N2CCCCCC2)CC1,5.1,3,13,3,3,-15,3184
Cc1ccccc1NC1=C/C(=N\S(=O)(=O)c2cccs2)c2ccccc2C1=O,99*,88*,6,18,1,-70,?
Cc1ccc(S(=O)(=O)NC(C(=O)N2CCC(C(=O)NCC(=O)O)CC2)C(C)C)cc1 (centres undefined),5.2,-2,4,1,·,·,·
CC1(C)CC(=O)C2=C(C1)N(c1ccc(F)cc1)C(=O)CC2c1cccnc1 (centres undefined),5.2,1,-2,-7,-2,-7,5947
Cc1ccc2nc(NC(=O)CCn3c(=O)sc4ccccc43)sc2c1,-6.5,-4,0,8,2,-11,6247
COc1ccc2c(c1)c(C(=O)NN=Cc1ccc(O)c(O)c1)c(C)n2C,4.7,-2,13,5,·,·,·
COc1cc2c(cc1OC)C(C)N(C(=O)c1cc3ccccc3o1)CC2 (centres undefined),23,-7,-3,0,5,-8,11338
CC(=O)N/C(N)=N/c1nc2cc([N+](=O)[O-])ccc2o1,1.1,14,5,-4,2,-42,4680
COc1ccc(NC(=O)N(C)C[C@@H]2Oc3c(NC(=O)Nc4c(C)noc4C)cccc3C(=O)N([C@@H](C)CO)C[C@@H]2C)cc1,-13,-6,-3,12,·,-9,3685
O=C(NCC1CCCO1)c1ccc(Br)s1 (centres undefined),0.5,0,24,19,-4,-12,5716
CCOC(=O)NS(=O)(=O)c1ccc(CCNC(=O)c2cc(C)on2)cc1,2.9,-1,6,11,4,4,10689
CCOC(=O)N1CCC(NC(=O)c2cc(S(=O)(=O)N3CCCCC3)ccc2F)CC1,5.6,3,13,6,0,-11,4175
CCOc1ccc(NC(=O)CN2C(=O)SC(=Cc3cccn3C)C2=O)cc1,0.8,-5,-1,3,·,·,·
COc1ccc(/C=C/C(=O)NCC(=O)N2CCC(N(C)CCN3CCOCC3)CC2)cc1OC,3.8,6,20,10,8,-14,2881
CCC1=C(OC(=O)N(CC)CC)N2C(=O)OC(=NCCc3c[nH]c4ccccc34)[C@]2(C)C2C1=CCC1C(=O)N(CC(=O)OC)C(=O)C12 (some centres undefined),9.4,-1,0,-5,·,·,·
Cc1[nH]c2ccccc2c1SCc1nnc(SCc2ccc(Cl)cc2)n1C,-2.4,-14,13,0,-4,-11,6278
O=C(Nc1ccc2c(c1)OCO2)c1ccc([N+](=O)[O-])cc1[N+](=O)[O-],11,5,14,12,2,-4,3511
O=C1C=C(c2cccc3c2oc2ccccc23)CCC1,14,28,3,2,-4,-15,4330
NC(=S)NN=C1CCSCC1,2.6,-3,8,3,·,-6,2987
Cn1cc(C(=O)C(=O)N2CCCC2)c2ccccc21,2.5,8,14,1,5,-15,3833
CCc1ccc(NC(=O)CCNC(=O)Cn2cnc3ccccc3c2=O)cc1,2.7,-1,3,3,10,-31,5620
CN(C)/C=N/c1ncc(C(=O)c2ccccc2)s1,·,·,·,·,8,-58,9951
Cc1nnc(SCC(=O)NCC(=O)Nc2ccc(F)c(F)c2F)n1N,5.4,3,14,7,·,-27,4311
Cc1sc2nc(CN(C(=O)c3cccs3)C3CCCC3)[nH]c(=O)c2c1C,-3.2,2,·,·,10,-2,3533
Cc1ccccc1C(=O)NNC(=S)Nc1cccc(C(F)(F)F)c1,23,-17,3,3,4,-31,2177
CCc1ccc(NCCC(=O)c2ccc(Br)cc2)cc1,1.0,5,3,-2,4,-9,8205
Cc1ccc2c(C(=O)CN3CCCC(C)C3)c(C)[nH]c2c1 (centres undefined),2.4,13,3,6,-5,-10,3775
CSc1nc2cc(C)nn2c(-c2ccccc2Cl)c1C#N,-0.4,-9,-2,12,-6,-16,4100
CN(C)c1cccc(C(=O)OCC(=O)Nc2ccccc2Cl)c1,1.4,-22,4,7,-2,-3,2020
COc1ccc(NC(c2ccccc2)c2ccncc2)cc1 (centres undefined),2.6,4,-7,6,4,-13,3633
O=C(CN1C(=O)c2cccnc2Oc2ccc(Cl)cc21)NC1CCCCC1,-4.0,7,·,·,-6,-5,4554
O=C(Nc1ccccc1C(F)(F)F)c1cc2ccccc2o1,3.0,9,1,-9,-5,-64,4412
Cc1ccc(S(=O)(=O)NN=C2CC3CCC2(C)C3(C)C)cc1 (centres undefined),8.2,-4,18,10,·,-18,3706
Cc1nn(CCC(=O)NNC(=S)Nc2ccc([N+](=O)[O-])cc2)c(C)c1[N+](=O)[O-],·,·,·,·,1,-30,3205
OC(Cn1cncn1)(c1ccc(F)cc1)c1ccc(Cl)cc1 (centres undefined),-0.1,-4,10,-5,5,-34,3913
O=C(Cc1ccc(Cl)cc1)NNC(=O)c1cnccn1,6.8,0,7,-1,8,-17,2555
NC(=O)c1cc(S(=O)(=O)Nc2cccc(F)c2)co1,3.4,6,·,·,-8,-10,6072
Cc1nc2ccccc2cc1C(=O)NN=Cc1ccco1,4.6,10,2,-1,·,·,·
O=C1OC(c2ccccc2)=NC12CC2c1ccc(Cl)cc1 (centres undefined),-0.7,3,-2,17,0,-14,1970
# (next part)
SMILES,RN4220 kill,Sa ugtP lethal,Mtb hypoxia inh,Mtb hypoxia inh growth,BJeLR viability,PrP UTR inh,Autofluor counter
CC1(c2nnc(-c3ccccc3)o2)CC(c2ccc([N+](=O)[O-])cc2)=NO1 (centres undefined),19,-18,7,5,6,-14,4386
O=C(c1ccccc1)c1ccc(NCCCn2ccnc2)c([N+](=O)[O-])c1,·,·,·,·,5,-10,3594
CCOC(=O)C1(Cc2ccc(OC)cc2)CCN(C(=O)CCn2cccn2)CC1,5.7,10,10,-5,7,-40,5364
COc1ccc(OCC(=O)NC(=S)Nc2ccc(S(=O)(=O)Nc3cc(OC)nc(OC)n3)cc2)cc1,3.5,6,19,3,-6,-6,3706
COc1ccc(S(=O)(=O)N2CCOCC2)cc1NC(=O)COC(=O)c1oc2ccccc2c1C,6.1,13,-1,-4,·,7,3079
